From PubChem BioAssay
HIV Env fusion – inhibitors of HIV-1 Env-driven cell-cell fusion, primary screen, HeLa-JRFL effector, CEM21 target cells, luciferase; inhibition, % at 12.3 µM; AID 651610, 2012; 1.1% of 360,000 active;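 active = mean replicate inhibition score of at least 50 and every replicate individually at or above 50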;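 note: 0% = plate neutral controls and 100% = maraviroc near 300 nM; one replicate is shown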
UUG fidelity – modulators of yeast start codon fidelity, primary screen, whole organism, S. cerevisiae, single point, plate reader; activity score, % at 18.7 µM; 0.13% of 350,000 active; S. cerevisiae UUG-firefly luciferase reporter, luminescence/redox ratio; AID 602363, 2012;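 active = replicate mean at a twofold rise or more, about +100% in these data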;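 note: firefly luciferase made from a UUG start codon reports start codon fidelity; reporter light over untreated wells divided by growth signal over untreated wells; some hits fall short of that in this replicate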
* marks the source's active call; other numbers are inactive results; [ ] = another dose, or the depositor's remark. Only part of the results is shown (hit frequency here may not be typical).

#	SMILES	HIV Env fusion	UUG fidelity
1	CC(C)NC(=O)N(C)C[C@@H]1Oc2cc(C#CC(C)(C)O)ccc2S(=O)(=O)N([C@@H](C)CO)C[C@@H]1C	-16.1[16.7 µM]	-6.4
2	C[C@@H]1CN([C@H](C)CO)C(=O)Cc2cc(NC(=O)Nc3ccc4c(c3)OCO4)ccc2O[C@H]1CN(C)C(=O)Nc1ccc(F)cc1	7.9[16.7 µM]	11.1
3	C[C@@H]1CN([C@H](C)CO)C(=O)Cc2cc(NC(=O)Nc3ccc4c(c3)OCO4)ccc2O[C@@H]1CN(C)C(=O)Nc1ccccc1	1.4[16.7 µM]	1.5
4	C[C@H](O)C#Cc1ccc2c(c1)O[C@H](CN(C)C(=O)CC1CC1)[C@@H](C)CN([C@H](C)CO)S2(=O)=O	-46.1[16.7 µM]	0.3
5	O=C(C[C@H]1CC[C@@H](NC(=O)NC2CCCCC2)[C@H](CO)O1)NCc1ccc(F)cc1	2.3[16.7 µM]	3.0
6	O=C(C[C@H]1CC[C@@H](NC(=O)Nc2cccc(F)c2)[C@@H](CO)O1)NCC1CCCCC1	5.8[16.7 µM]	-8.8
7	CN1C(=O)c2cc(NC(=O)Nc3ccccc3)ccc2OC[C@H]2O[C@H](CC(=O)NC3CCC3)CC[C@H]21	8.5[16.7 µM]	-12.3
8	C[C@@H]1CCCCO[C@H](CN(C)C(=O)c2ccccc2)[C@@H](C)CN([C@@H](C)CO)C(=O)c2cc(NC(=O)Nc3ccc(F)cc3)ccc2O1	2.0[16.7 µM]	-14.8
9	C[C@@H]1CN([C@H](C)CO)C(=O)Cc2cc(NC(=O)CCCCCC(=O)Nc3ccccc3N)ccc2O[C@@H]1CN(C)Cc1ccc(C(F)(F)F)cc1	44.0[16.7 µM]	1.4
10	C[C@@H]1CCCCO[C@@H](CN(C)C(=O)Nc2ccc3c(c2)OCO3)[C@H](C)CN([C@@H](C)CO)C(=O)c2cc(NS(=O)(=O)c3ccccc3)ccc2O1	-9.0[16.7 µM]	10.8
11	N#C[C@@H]1[C@H](c2ccc(-c3ccccc3F)cc2)[C@H](CO)N1C(=O)c1ccccn1	46.1[16.7 µM]	0.5
12	C[C@H]1CN([C@@H](C)CO)S(=O)(=O)c2ccc(C#CC3CCCCC3)cc2O[C@@H]1CN(C)Cc1cccnc1	18.7[16.7 µM]	-4.8
13	CC(C)CC#Cc1cnc2c(c1)C(=O)N([C@@H](C)CO)C[C@@H](C)[C@H](CN(C)Cc1ccccc1F)O2	21.4[16.7 µM]	18.7
14	C[C@@H]1CN([C@@H](C)CO)C(=O)Cc2cc(NC(=O)Cn3cnnn3)ccc2O[C@H]1CN(C)Cc1ccc(C(F)(F)F)cc1	-0.2[16.7 µM]	63.1
15	Cc1noc(C)c1NC(=O)Nc1ccc2c(c1)C(=O)N([C@H](C)CO)C[C@@H](C)[C@H](CN(C)C(=O)Nc1ccc(F)cc1)O2	4.5[16.7 µM]	1.2
16	C[C@@H]1CCCCO[C@@H](CN(C)Cc2ccc3c(c2)OCO3)[C@@H](C)CN([C@@H](C)CO)C(=O)c2cc(NC(=O)Nc3cccc4ccccc34)ccc2O1	1.3[16.7 µM]	6.3
17	COc1ccc(S(=O)(=O)N(C)C[C@H]2OCCCC[C@@H](C)Oc3ccc(NC(=O)NC(C)C)cc3C(=O)N([C@@H](C)CO)C[C@@H]2C)cc1	-18.3[16.7 µM]	1.2
18	C[C@H](CO)N1C[C@H](C)[C@H](CN(C)C(=O)CN(C)C)Oc2ncc(C#Cc3ccccc3)cc2C1=O	6.1[16.7 µM]	4.1
19	C[C@@H]1CCCCO[C@H](CN(C)Cc2ccncc2)[C@@H](C)CN([C@@H](C)CO)C(=O)c2cc(NC(=O)CCC(F)(F)F)ccc2O1	-21.2[16.7 µM]	7.4
20	C[C@@H]1CN([C@H](C)CO)S(=O)(=O)c2ccc(-c3ccccc3)cc2O[C@@H]1CN(C)Cc1cccc(F)c1	44.3[16.7 µM]	-2.4
21	COc1ccc(NC(=O)N(C)C[C@@H]2Oc3ccc(NC(=O)CCN4CCOCC4)cc3C(=O)N([C@H](C)CO)C[C@H]2C)cc1	-11.3[16.7 µM]	-3.0
22	C[C@@H]1CN([C@H](C)CO)C(=O)c2cccc(NC(=O)Nc3ccc4c(c3)OCO4)c2O[C@@H]1CN(C)S(=O)(=O)c1ccccc1	16.0[16.7 µM]	2.1
23	C[C@H](CO)N1C[C@H](C)[C@H](CN(C)Cc2ccc3c(c2)OCO3)Oc2c(cccc2N(C)C)C1=O	-3.3[16.7 µM]	-9.3
24	O=C(C[C@@H]1CC[C@H](NC(=O)Nc2cc(F)ccc2F)[C@@H](CO)O1)NCc1ccc2c(c1)OCO2	6.0[16.7 µM]	-2.9
25	C[C@@H]1CN([C@H](C)CO)C(=O)c2cc(NS(=O)(=O)c3ccc(Cl)cc3)ccc2O[C@@H](C)CCCCO[C@@H]1CN(C)S(=O)(=O)c1cccs1	-8.4[16.7 µM]	3.6
26	Cc1noc(C)c1NC(=O)NCC[C@H]1CC[C@@H](NC(=O)c2ccccc2)[C@@H](CO)O1	13.6[16.7 µM]	-1.0
27	O=C(Cc1ccncc1)NCC[C@@H]1CC[C@H](NS(=O)(=O)c2ccccc2Cl)[C@H](CO)O1	6.4[16.7 µM]	-14.5
28	O=C(C[C@H]1C[C@H]2c3cc(NC(=O)C4CCC4)ccc3O[C@H]2[C@@H](CO)O1)NCCN1CCCCC1	-19.7[16.7 µM]	-7.1
29	O=C(C[C@H]1C=C[C@@H](NS(=O)(=O)c2ccccc2)[C@H](CO)O1)NCc1ccccc1F	0.8[16.7 µM]	3.4
30	COc1cccc(NC(=O)N[C@H]2C=C[C@@H](CC(=O)NCc3ccccn3)O[C@H]2CO)c1	21.2[16.7 µM]	-14.1
31	C[C@H]1CN([C@@H](C)CO)C(=O)c2cc(NC(=O)C3CC3)ccc2O[C@H]1CN(C)Cc1ccc2c(c1)OCO2	16.8[16.7 µM]	-1.9
32	COc1ccc(S(=O)(=O)N(C)C[C@@H]2OCCCC[C@H](C)Oc3ccc(NC(=O)Nc4ccc5c(c4)OCO5)cc3C(=O)N([C@H](C)CO)C[C@@H]2C)cc1	5.2[16.7 µM]	-15.9
33	COc1ccc(CN(C)C[C@H]2Oc3c(NS(=O)(=O)c4ccccc4)cccc3C(=O)N([C@@H](C)CO)C[C@H]2C)cc1	12.0[16.7 µM]	-1.8
34	Cn1cnc(S(=O)(=O)N2C[C@@H](O)COC[C@H]3O[C@@H](CC(=O)NC4Cc5ccccc5C4)CC[C@@H]32)c1	12.0[16.7 µM]	11.8
35	C[C@H](CO)N1C[C@H](C)[C@@H](CN(C)Cc2ccccc2)Oc2ccc(NC(=O)C3CC3)cc2CC1=O	0.9[16.7 µM]	-0.9
36	C[C@@H]1CN([C@@H](C)CO)S(=O)(=O)c2ccc(C#CC3CCCC3)cc2O[C@@H]1CN(C)C(=O)Cc1ccccc1	-33.8[16.7 µM]	-8.7
37	C[C@@H]1CN([C@H](C)CO)S(=O)(=O)c2ccc(C#CC3(O)CCCC3)cc2O[C@@H]1CN(C)C(=O)c1ccccc1	5.7[16.7 µM]	11.1
38	C[C@@H]1CN([C@@H](C)CO)C(=O)c2cc(C#CC3CC3)cnc2O[C@H]1CN(C)C(=O)Nc1ccc(F)cc1	-11.6[16.7 µM]	-6.5
39	C[C@H](CO)N1C[C@H](C)[C@H](CN(C)C(=O)C2CCC2)Oc2ncc(-c3cccc(F)c3)cc2C1=O	6.8[16.7 µM]	11.7
40	COc1ccc(NC(=O)Nc2ccc3c(c2)CC(=O)N([C@H](C)CO)C[C@H](C)[C@H](CN(C)S(=O)(=O)c2c(C)noc2C)O3)cc1	47.4[16.7 µM]	-4.6
41	C[C@H](NC(=O)C[C@H]1C=C[C@@H](NC(=O)C2CCOCC2)[C@H](CO)O1)c1ccccc1	-30.5[16.7 µM]	-8.1
42	Cc1cccc(S(=O)(=O)N[C@@H]2CC[C@@H](CCNC(=O)CCN3CCCCC3)O[C@H]2CO)c1	11.6[16.7 µM]	-4.2
43	Cc1noc(C)c1S(=O)(=O)Nc1ccc2c(c1)C(=O)N([C@@H](C)CO)C[C@@H](C)[C@@H](CN(C)Cc1ccc(C(=O)O)cc1)OCCCC[C@H](C)O2	-47.5[16.7 µM]	1.4
44	C[C@@H]1CCCCO[C@@H](CN(C)C(=O)Nc2ccccc2)[C@H](C)CN([C@H](C)CO)C(=O)c2cc(NS(=O)(=O)c3cn(C)cn3)ccc2O1	-7.9[16.7 µM]	9.3
45	CO[C@@H]1CN(C)C(=O)c2cc(NC(C)=O)ccc2OC[C@@H](C)N(C(=O)CC2CC2)C[C@@H]1C	3.0[16.7 µM]	-15.7
46	O=C(C[C@@H]1CC[C@@H](NC(=O)c2cccc(F)c2)[C@H](CO)O1)NCc1ccc(Oc2ccccc2)cc1	16.9[16.7 µM]	-12.3
47	N#C[C@@H]1[C@@H](c2ccccc2)[C@H](CO)N1C(=O)c1cc(Cl)cc(Cl)c1	3.4[16.7 µM]	-3.5
48	C[C@@H]1CN([C@@H](C)CO)C(=O)c2cc(C#CCN(C)C)cnc2O[C@H]1CN(C)C(=O)c1cccnc1	-3.1[16.7 µM]	-16.2
49	Cc1cc(C(=O)Nc2cccc3c2O[C@@H](CN(C)C(=O)Nc2ccc(C(F)(F)F)cc2)[C@H](C)CN([C@@H](C)CO)C3=O)n(C)n1	29.1[16.7 µM]	-3.7
50	C[C@@H]1CN([C@H](C)CO)C(=O)c2cc(NC(=O)c3ccccc3)ccc2O[C@@H](C)CCCCO[C@@H]1CN(C)Cc1ccc2c(c1)OCO2	-1.5[16.7 µM]	5.0
51	O=C(C[C@H]1CC[C@@H]2[C@H](COC[C@@H](O)CN2S(=O)(=O)c2cccc(F)c2)O1)NC1CCC1	0.2[16.7 µM]	15.3
52	Cc1noc(C)c1S(=O)(=O)N(C)C[C@H]1Oc2ccc(NC(=O)Nc3cccc4ccccc34)cc2CC(=O)N([C@@H](C)CO)C[C@@H]1C	-4.9[16.7 µM]	-22.8
53	C[C@H]1CN([C@@H](C)CO)C(=O)c2cc(C#CCc3ccccc3)cnc2O[C@H]1CN(C)CC1CCOCC1	-10.0[16.7 µM]	0.4
54	CCNC(=O)C[C@H]1CC[C@@H]2[C@@H](COc3ccc(NC(=O)C4CCOCC4)cc3C(=O)N2C)O1	-12.6[16.7 µM]	5.2
55	C[C@@H](O)C#Cc1ccc2c(c1)O[C@H](CN(C)Cc1cncnc1)[C@@H](C)CN([C@@H](C)CO)S2(=O)=O	-31.9[16.7 µM]	7.2
56	COc1ccc(-c2cnc3c(c2)C(=O)N([C@@H](C)CO)C[C@@H](C)[C@@H](CN(C)C(=O)C2CCOCC2)O3)cc1	-19.8[16.7 µM]	6.2

Among those listed so far, 2 have a cyano group:
#	SMILES	HIV Env fusion	UUG fidelity
11	N#C[C@@H]1[C@H](c2ccc(-c3ccccc3F)cc2)[C@H](CO)N1C(=O)c1ccccn1	46.1[16.7 µM]	0.5
47	N#C[C@@H]1[C@@H](c2ccccc2)[C@H](CO)N1C(=O)c1cc(Cl)cc(Cl)c1	3.4[16.7 µM]	-3.5

New compounds follow
#	SMILES	HIV Env fusion	UUG fidelity
57	N#C[C@@H]1[C@@H](c2ccc(-c3ccccc3F)cc2)[C@@H](CO)N1C(=O)c1ccccn1	16.4[16.7 µM]	-8.5
58	O=C(NCC[C@@H]1CC[C@@H](NS(=O)(=O)c2cccc(F)c2)[C@@H](CO)O1)C1CC1	3.4[16.7 µM]	-3.1
59	C[C@@H]1CN([C@H](C)CO)C(=O)c2cc(-c3ccc(C(=O)N(C)C)cc3)cnc2O[C@H]1CN(C)C(=O)C1CC1	-24.4[16.7 µM]	0.7
60	CCC(=O)N(C)C[C@@H]1Oc2cc(C#CC3CCCCC3)ccc2S(=O)(=O)N([C@H](C)CO)C[C@@H]1C	6.9[16.7 µM]	8.0
61	COc1ccc(NC(=O)N(C)C[C@H]2Oc3ncc(-c4cccnc4)cc3C(=O)N([C@@H](C)CO)C[C@H]2C)cc1	24.6[16.7 µM]	-19.5
62	COc1ccc(CN(C)C[C@@H]2Oc3ccc(NC(=O)C4CC4)cc3C(=O)N([C@H](C)CO)C[C@H]2C)cc1	-3.1[16.7 µM]	8.0
63	CNC[C@H]1Oc2ccc(NC(=O)Cc3cn(C)c4ccccc34)cc2C(=O)N([C@@H](C)CO)C[C@@H]1C	4.6[16.7 µM]	10.0
64	O=C(C[C@@H]1CC[C@H](NC(=O)C2CC2)[C@H](CO)O1)Nc1nccs1	8.6[16.7 µM]	-17.0
65	C[C@H](CO)N1C[C@H](C)[C@H](CN(C)S(=O)(=O)c2ccc(Cl)cc2)Oc2ccc(NC(=O)C3CCCCC3)cc2C1=O	30.4[16.7 µM]	7.9
66	Cc1noc(C)c1S(=O)(=O)Nc1ccc2c(c1)C(=O)N([C@@H](C)CO)C[C@H](C)[C@H](CN(C)C(=O)c1ccccc1)OCCCC[C@H](C)O2	-8.0[16.7 µM]	0.9
67	COc1ccc(NC(=O)Nc2ccc3c(c2)C(=O)N([C@@H](C)CO)C[C@@H](C)[C@@H](CN(C)C(=O)c2ccccc2)OCCCC[C@H](C)O3)cc1	5.7[16.7 µM]	13.8
68	COc1ccc([Si](C)(C)[C@@H]2[C@@H](CCn3cc([C@H](O)c4ccccc4)nn3)O[C@]3(C(=O)N(c4ccccc4)c4ccccc43)[C@H]2C)cc1	6.0[16.7 µM]	-13.0
